# Vaccinia Venus: qHTS for Stage-Specific Inhibitors of Vaccinia Orthopoxvirus: Venus Reporter Primary qHTS; AID 720580, 2013; Potency, µM (top dose mostly 36.5 µM), inactives show at the top dose activity change, negative = inhibition, hits mostly inhibitors; 0.46% of 330,000 active; Vaccinia virus Venus reporter expression, fluorescence; active means well fitted inhibition curve with a large enough effect; inconclusive means small, poorly fitted or top-dose-only effect; inactive means no such curve, though single readings can be large or run the other way; tested in A549 cells; also: nearly all actives have a fitted effect of over 30% in size; inactives centre near -10
# Vaccinia mCherry: qHTS for Stage-Specific Inhibitors of Vaccinia Orthopoxvirus: mCherry Reporter Primary qHTS; 0.63% of 310,000 active; Potency, µM (top dose mostly 36.5 µM), for the others: at the top dose activity change, negative = inhibition, actives largely listed as inhibitors; Vaccinia virus mCherry reporter infection, fluorescence; about a quarter of the inactives have no number; AID 720579, 2013; active = well fitted inhibition curve with a large enough effect; inconclusive = small, poorly fitted or top-dose-only effect; inactive = no such curve, though single readings can be large or run the other way; tested in A549 cells; also: nearly all actives have a fitted effect of over 35% in size; inactives centre near -10
# Numbers without * were called inactive; i = inactive; ? = inconclusive; · = not tested or not shown; & = joins results of further samples; [ ] = dose if it differs, or a comment. % is scaled to controls: 0 for no effect and ±100 for the full control effect; potency is read from the fitted curve at half-maximal effect. Compounds were not picked by outcome; any-hit rate near 0.82%.
SMILES,Vaccinia mCherry,Vaccinia Venus
Cc1c(C(=O)N2CCCC2)sc2ncnc(NCCCN3CCOCC3)c12,i,0%
CCc1ccc(C(=O)c2cn(CC(=O)Nc3cc(OC)ccc3OC)c3ccc(Cl)cc3c2=O)cc1,-3%,2%
C=C(C)C(=O)Nc1cccc(C2=NOC3(C2)C[C@@H](C(N)=O)N(C(=O)/C=C/CC)C3)c1 (some centres not stated),i,-2%
CCc1nc2ccccc2c(C(=O)OCC(=O)N(CCOC)c2c(N)n(Cc3ccccc3)c(=O)[nH]c2=O)c1C,-21%,-19%
Cc1ccc(NC(=O)Cn2c(=O)n(Cc3ccccc3)c(=O)c3sc4ccccc4c32)cc1,-8%[7.34 µM],-9%[7.34 µM]
COc1ccc(C)cc1N(C(=O)c1snc(C(N)=O)c1N)C(C(=O)NC1CCCC1)c1ccc(F)cc1 (configuration not stated),i,-2%
[N-]=[N+]=CC(=O)CNC(=O)[C@@H](Cc1ccccc1)N1C(=O)c2ccccc2C1=O,·,-9%
COc1ccc(NC(=O)c2ccc(CNS(=O)(=O)c3ccc4c(c3)C(C)(C)C(=O)N4C)cc2)cc1,-9%,-1%
O=S(=O)(NCc1ccccc1)c1ccccc1Br,-3%,-11%
CC1=NC(C)Cc2ccccc21 (configuration not stated),·,-4%
CC(=O)c1ccc(NS(=O)(=O)c2ccc(CC(C)C)cc2)cc1,-17%,-26%
N#CC(c1ccc(Cl)cc1)c1nc2ccccc2nc1C(F)(F)F (configuration not stated),·,16%
Cc1ccc(N2C(=O)N(CC(=O)Nc3cccc(C)c3C)C(=O)C2C)cc1 (configuration not stated),-1%,-12%
CN(C)S(=O)(=O)c1ccc(C(=O)OCC(=O)NCc2ccco2)cc1,1%,1%
O=C(NO)C1CC2C=CC1C2 (configuration not stated),-10%,-5%
Cc1cc(C)c(S(=O)(=O)N2CCN(S(=O)(=O)N3CCCCCC3)CC2)c(C)c1,-14%,-12%
COC(=O)[C@]1(Cc2ccccc2)N[C@H](CN(C)C(=O)c2ccccc2)[C@@H]2C(=O)N(C)C(=O)[C@@H]21,i,1%
CCOC(=O)c1cc2c(=O)n3ccccc3nc2n(Cc2ccco2)c1=NC(=O)c1ccc(OC)cc1,-16%&-16%,-8%&-12%
Cc1ccccc1NC(=O)C1CC(=O)N(Cc2ccccc2)C1 (configuration not stated),2%,1%
Clc1ccc(-c2ccccc2)nn1,i,-8%

# Two of these compounds, reformatted.
> CCc1nc2ccccc2c(C(=O)OCC(=O)N(CCOC)c2c(N)n(Cc3ccccc3)c(=O)[nH]c2=O)c1C
  Vaccinia mCherry: -21% | Vaccinia Venus: -19%

> C=C(C)C(=O)Nc1cccc(C2=NOC3(C2)C[C@@H](C(N)=O)N(C(=O)/C=C/CC)C3)c1 (some centres not stated)
  Vaccinia mCherry: i | Vaccinia Venus: -2%

# Continued.
SMILES,Vaccinia mCherry,Vaccinia Venus
CN(C)c1ccc(/C=C2\C=Cc3ccccc32)cc1Cl,-15%,-16%
O=C(NCCC1=CCCCC1)C1CCC(=O)N(Cc2cccc(C(F)(F)F)c2)C1 (configuration not stated),-22%,-28%
COc1ccc(C(=O)C2CCCN(C(=O)Cn3nc(C)nc3C)C2)cc1F (configuration not stated),i,1%
Cc1cc(C)cc(NC(=O)c2cccc(N3CCCS3(=O)=O)c2)c1,-9%,-15%
COC(=O)[C@H]1C[C@@H]1[C@H](NC(=O)c1cccnc1)c1ccccc1,-9%,6%
Nc1nnc(SCC(=O)Nc2cc(F)ccc2F)s1,-6%,-9%
Cc1n[nH]c(=O)c2c(NC(=O)CSc3nc4ccccc4c(=O)n3-c3ccc(OC(F)F)cc3)oc(C)c12,?,-28%
CCOC(=O)C1=C(N)N(c2cc(S(=O)(=O)N3CCOCC3)ccc2Cl)C(=O)C1,-1%,-5%
COCCN(CC(=O)Nc1cccc(C)c1C)C(=O)c1cc2c(s1)CCC2,-18%,-3%
CCOC(=O)c1c(C)n(C)c2ccc(OCC(O)CN3CCN(C)CC3)cc12 (configuration not stated),-4%,-10%
O=c1c2ccccc2nc2c3ccccc3c(NCc3ccco3)nn12,-11%,-13%
COc1cccc(C(C(=O)NC2CCCC2)N(C(=O)c2ccco2)c2ccccc2F)c1OC (configuration not stated),-43%,-6%
O=C(CSc1oc(-c2ccco2)nc1S(=O)(=O)c1ccc(Cl)cc1)NCC1CCCO1 (configuration not stated),-8%,-8%
COc1ccc(NC(=O)C(c2cc3ccccc3o2)n2c(=O)c(-c3cc4ccccc4[nH]3)nc3ccccc32)cc1 (configuration not stated),-28%,-7%
CCc1nnc(NC(=O)C2CCCCN2S(=O)(=O)c2ccccc2)s1 (configuration not stated),i,-11%
COc1cccc(NC(=O)CSc2nnc3ccc(-c4ccccn4)nn23)c1,i,-3%
CCC(=O)N1CCN(C(C)=O)C1c1ccccc1 (configuration not stated),·,-14%
COc1ccc(C2(c3ccc(OC)cc3)NC(=O)N(CC(=O)Nc3ccccc3)C2=O)cc1,-19%,-18%
COc1ccccc1-c1cnc(C(O)c2cccc(CN3CCCCC3)c2)[nH]1 (configuration not stated),-1%,-2%
Cc1ccc(N(CC(=O)N2CCN(c3cc(C)ccc3C)CC2)S(=O)(=O)c2c(C)nn(C)c2C)cc1,-25%,-25%
CCOC(=O)C1=C(CC)OC(N)=C(C#N)C1c1cccs1 (configuration not stated),-9%,-18%
O=C(C[n+]1ccc(/C=N/O)cc1)NC1CCCCC1,i,-17%
CCn1nc(-c2ccccc2)c(-c2ccccc2)c(C(=O)Nc2ccccc2C#N)c1=O,0%,-11%
CC(C)Oc1ccc(C(=O)NC2CCSc3ccccc32)cc1 (configuration not stated),-9%,-1%
Cn1ncc([N+](=O)[O-])c1C(=O)Nc1ccc2c(c1)OCCO2,·,-11%
O=C1CCCN1CCCNS(=O)(=O)c1ccc(Br)s1,i,-9%
CN(C)C(=O)c1cccn(Cc2cccc(C(F)(F)F)c2)c1=O,-2%,-5%
COc1ccccc1NC(=S)NCc1ccco1,·,12%
CCOC(=O)c1ccccc1NC(=O)c1n[nH]c(=O)c2ccccc12,i,-13%
Cc1ccc(C)c(NC(=O)C(=O)NCCc2csc3nc(-c4ccccc4C)nn23)c1,11%,14%
CCOC(=O)C1=C(C)NC(=O)NC1c1ccc(-c2ccccc2F)o1 (configuration not stated),-20%,-17%
Cn1c(=O)c2c(nc(Br)n2CCc2ccccc2)n(C)c1=O,·,0%
Cc1ccc(NC(=O)COC(=O)Cn2cnc3ccccc32)c([N+](=O)[O-])c1,i,-16%
Cc1ccc(NC(=O)CNC(=O)c2ccc(C(C)(C)C)cc2)cc1S(=O)(=O)N1CCOCC1,-14%,7%
Cc1ccc(C)c(N2CCN(C(=O)c3cc4cc5ccc(C)cc5nc4o3)CC2)c1,-10%,-6%
CCS/C(N)=N/N=C/c1cc(C)ccc1O,·,-23%
O=C(COc1cccc(NC(=O)c2cccs2)c1)c1ccc(F)cc1,-4%,-16%
CCOC(=O)c1c(NC(=O)c2cc(=O)c3cc(Cl)ccc3o2)sc(C)c1C,4%,-5%
CCN(c1ccccc1)S(=O)(=O)c1ccc(C(=O)Nc2ccccc2OC)cc1,-14%,-8%
CC12CCC(C(=O)Nc3ccc(Cl)cc3)([C@H](Br)C1=O)C2(C)C (some centres not stated),i,-4%
COc1ccc(C(c2sc3ncnn3c2O)N2CC(C)OC(C)C2)cc1OC (configuration not stated),-8%,2%
COc1ccc(Cl)cc1NC(=O)C(C)N1Cc2ccccc2C1=O (configuration not stated),0%,-14%
O=C(CC1S/C(=N/N=C/c2c[nH]c3ccc(OCc4ccccc4)cc23)NC1=O)Nc1ccccc1 (configuration not stated),i,-16%
CN(C)S(=O)(=O)c1cccc(NC(=S)NCCCn2ccnc2)c1,2%,-6%
COc1ccc(/C=C2\CCCC3C2=NN(C(=O)CSc2n[nH]c(N)n2)C3c2ccc(OC)cc2)cc1 (configuration not stated),-30%,?
O=c1c(Cl)c(Cl)cnn1Cc1nnc(-c2ccc(Cl)cc2)o1,?,?
CCOC(=O)NC(=O)CSc1nc2ccc(C)cc2[nH]1,-3%,-15%
CCOC(=O)c1cncc(C(=O)O)c1,·,-6%
Cc1ccc(NC(=O)C(C)Sc2nc3c(c(=O)[nH]2)CCCC3)cc1Cl (configuration not stated),-5%[7.34 µM],-3%[7.34 µM]
CCOc1ccc(N(C)C(=O)CCc2nnc3ccc(NCc4ccco4)nn23)cc1,-24%,-9%
O=S(=O)(Nc1nc2c(s1)CCCC2)c1ccc2ccccc2c1,·,-24%
Cc1nc2ccccc2c(=O)n1-c1ccccn1,-5%[1.46 µM],-6%
CC(C)(C)CC(=O)NCc1ccc(F)cc1,-1%,-9%
O=C(c1nc2ccccc2[nH]1)c1ccccc1[N+](=O)[O-],-3%,17%
COc1ccc2c(Cl)c(-c3nnc(SCC(N)=O)n3C)sc2c1,-24%,-22%
Cc1ccc(S(=O)(=O)NC2(C(F)(F)F)C(=O)Nc3c2c(=O)[nH]c(=O)n3-c2ccccc2)cc1 (configuration not stated),-1%&-3%,3%&-2%
Cc1ccc(S(=O)(=O)N2CCCc3cc(NS(=O)(=O)c4cc(F)ccc4F)ccc32)cc1,-12%,-4%
CN(C)c1nc(Nn2cnnc2)nc(N(C)C)n1,-6%,-13%
COc1ccc(C2(C(=O)NCCc3ccccc3)CCCC2)cc1OC,-13%,-5%
CCCNC(=O)C1(C)CCCN(Cc2cc(-c3ccccc3)n(C)n2)C1 (configuration not stated),25%,7%

# One compound at a time, as listed above:
# O=c1c(Cl)c(Cl)cnn1Cc1nnc(-c2ccc(Cl)cc2)o1 reads Vaccinia mCherry: ?; Vaccinia Venus: ?
# Cc1ccc(NC(=O)CNC(=O)c2ccc(C(C)(C)C)cc2)cc1S(=O)(=O)N1CCOCC1 reads Vaccinia mCherry: -14%; Vaccinia Venus: 7%
# Cc1ccc(NC(=O)Cn2c(=O)n(Cc3ccccc3)c(=O)c3sc4ccccc4c32)cc1 reads Vaccinia mCherry: -8%[7.34 µM]; Vaccinia Venus: -9%[7.34 µM]

# (list continues)
SMILES,Vaccinia mCherry,Vaccinia Venus
COc1ccccc1N1CCN(C(=O)CCNC(=O)Cn2ccc3ccccc3c2=O)CC1,1%,-1%
COc1ccc(C2CC(c3ccc4ccccc4c3OC(C)=O)=NN2C(=O)/C=C/c2ccccc2)cc1 (configuration not stated),i,-14%
COc1ccc(S(=O)(=O)CCC(=O)N2CC(=O)N(CCc3ccccc3)C(=O)C2)cc1,·,7%
Nc1nonc1-c1nc2ccccc2[nH]1,-7%,?
CC1CCCCN1CCNC(=O)C1CCCN(c2ncnc3c2nc2n3CCCCC2)C1 (configuration not stated),i,-19%
Cc1cc(C)n(CC(=O)n2c3c(c4ccccc42)CCCC3)n1,-14%,-24%
COC(=O)C1CCN(S(=O)(=O)CCNC(=O)c2ccccc2)CC1,i,-3%
Cc1cccc(C)c1NC(=O)C1(C)CSCC(=O)N1CCC(C)C (configuration not stated),7%,7%
CCCS(=O)(=O)N1CCCC(C(=O)N2CCC(Cc3ccccc3)CC2)C1 (configuration not stated),i,-11%
COC(=O)c1ccc(C)cc1,21%,-1%
Cc1ccc2c(=O)cc(C(=O)Nc3sc4c(c3C(=O)NCc3ccco3)CCCC4)oc2c1C,3%,4%
CC1(C)C(C=C(Cl)Cl)C1C(=O)OCc1cccc(Oc2ccccc2)c1 (configuration not stated),i,-10%
CN(CC(=O)Nc1cccc(F)c1)C(=O)c1cccc2ccccc12,i,-10%
c1cc2c(cc1NC1=NCCO1)CCCC2,?,4µM*
CCOC(=O)C(C(=O)NCc1ccc(F)cc1)c1ncc(C(F)(F)F)cc1Cl (configuration not stated),i,-16%
Cc1ccc(C(=O)Nc2ccccc2C(=O)NCc2ccco2)cc1,i,-12%
CN(C)CCCn1c2c3ccccc3ccc2c2oc(=O)c3ccccc3c21,22µM*,?
CC1=CC(=O)[C@@H](OC(=O)Nc2ccc(C)cc2)[C@@H](c2ccccc2Br)N1C,-22%,-22%
COc1ccc(NC(=O)c2cc3ccccn3n2)cc1,-27%,-11%
O=C(COc1ccccc1F)Nc1c(C(=O)Nc2cccc(F)c2)oc2ccccc12,-2%,0%
O=C(CSC1CC(=O)N(CCc2ccccc2)C1=O)Nc1cccc(Cl)c1 (configuration not stated),-22%,-8%
CC(=O)NC1(C(F)(F)F)C(=O)NC(C)=C1C#N (configuration not stated),i,-2%
O=C(Nc1ccc(Cl)c(C(F)(F)F)c1)C(Cc1ccccc1)NS(=O)(=O)c1ccc(Br)s1 (configuration not stated),-4%,4%
CCC(=O)N1CCc2cc(CNS(=O)(=O)c3cc(Cl)ccc3OC)ccc21,-13%,-4%
CC(=O)Nc1cccc(NC(=O)CS(=O)(=O)c2cn(CC(=O)N3CCCC3)c3ccccc23)c1,-4%,2%
O=C1CC(c2ccccc2)CC(O)=C1C=NC1CCCCCC1 (configuration not stated),i,-11%
COCCCNC(=O)Cc1ccccc1OC,·,-11%
COc1ccc(CCNC(=O)CCc2c(C)c3ccc(O)c(C)c3oc2=O)cc1,-10%,-9%

# Compound activity as filed in PubChem BioAssay.
